GIRK2 act = opens human GIRK2 potassium channels | hit rate 0.05% among 63,000 | calls only for hits at 25 µM | HEK293-GIRK2 thallium flux, Thallos fluorescence;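 active = among the strongest 0.2% of first-round signals and kept after retests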;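 note: first round at about 10 µM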
Target sequence (P48051 whole entry, looked up): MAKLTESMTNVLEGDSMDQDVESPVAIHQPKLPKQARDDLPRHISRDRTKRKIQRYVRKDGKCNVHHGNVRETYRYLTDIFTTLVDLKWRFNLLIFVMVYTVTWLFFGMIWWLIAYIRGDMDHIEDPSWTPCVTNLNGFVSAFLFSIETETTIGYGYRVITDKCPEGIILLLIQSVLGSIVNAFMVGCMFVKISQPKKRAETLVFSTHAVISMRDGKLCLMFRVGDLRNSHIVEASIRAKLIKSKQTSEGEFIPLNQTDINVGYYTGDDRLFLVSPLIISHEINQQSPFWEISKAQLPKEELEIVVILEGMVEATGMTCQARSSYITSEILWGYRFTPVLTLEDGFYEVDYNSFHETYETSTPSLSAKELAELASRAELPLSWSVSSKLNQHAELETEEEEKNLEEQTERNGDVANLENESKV
Calls only; i = inactive. Not all compounds are listed; the hit share may differ from the screen's.

GIRK2 act	Compound
i	COCCNC(=O)N1CCN(CC(O)C2CC2)CC1 (configuration not stated)
i	O=C(CCc1csc(NC(=O)Nc2ccccc2)n1)NCc1ccccc1Cl
i	CCc1nc2sc(C(c3ccc(F)cc3)N3CCCC3)c(O)n2n1 (configuration not stated)
i	COc1ccc(N2CCN(CC(=O)Nc3ccc4c(c3)Cc3ccccc3-4)C2=O)cc1
i	CN1CCN(NC(=O)c2csc(-c3cc4ccccc4[nH]3)n2)CC1
i	O=c1c(-c2ccccc2)coc2c3c(ccc12)OCN(c1ccccc1F)C3
i	COc1cc(CSc2cc(C)ncn2)cc(OC)c1
i	Cc1cc(C)c(NC(=O)COc2cc(C)nc(-c3ccc(Cl)cc3)n2)c(C)c1
i	O=c1c2cccnc2nc(SCc2cc(=O)n3cc(Cl)ccc3n2)n1Cc1ccc(F)cc1
i	O=c1c2nnn(Cc3ccccc3)c2ncn1Cc1nc(-c2ccc(Br)cc2)no1
i	CCCCCCNC(=O)/C(C#N)=C1\N=C(NC(=O)c2ccccc2)c2ccccc21
i	NS(=O)(=O)c1ccc(C(=O)Nc2cnc(N3CCN(c4ccccn4)CC3)nc2)cc1
i	O=C(Nc1ccccc1F)N1CCN(Cc2nnnn2-c2ccc(F)cc2)CC1
i	COc1cccc(COc2coc(C(=O)Nc3ccc4c(c3)OCO4)cc2=O)c1
i	O=C(NCc1ccccc1)Nc1cc(N2CCCC2)ncn1
i	CC1CC(=O)[C@@]2(C)C1=CC(=O)[C@]1(C)C2[C@@H](O)[C@@H]2OC(=O)[C@H]1[C@H]2C (some centres not stated)
i	NC(=O)C1(N2CCCCC2)CCN(c2ncc3c(=O)n(-c4ccccc4)c(=O)[nH]c3n2)CC1
i	CC(=O)c1ccc(-n2c(C)c(C)n3c4c(=O)[nH]c(=O)n(C)c4nc23)cc1
i	CC(C)Oc1ccc(NC(=O)C(C)Oc2cccc(Br)c2)cc1 (configuration not stated)
i	COC1(CNC(=O)C2(c3cccs3)CCCC2)CCSC1 (configuration not stated)
i	COc1ccc2cc(-c3nc(-c4ccc(C(F)(F)F)cc4)no3)c(=O)oc2c1
i	Cc1ccc(C2=NN(c3ccc(S(N)(=O)=O)cc3)C(c3ccc(F)cc3)C2)cc1 (configuration not stated)
i	CCc1ccc(-c2noc(Cn3cnc4c(cnn4-c4cc(Cl)ccc4C)c3=O)n2)cc1
i	O=C(O)C1CC2CN(C(=O)c3ccccc3)CC(C1)C2=O (configuration not stated)
i	CCN1C(SCC(=O)N(C)c2ccccc2)=NS(=O)(=O)c2ccccc21
i	O=C(c1nnn(-c2ccc(F)cc2)n1)N1CCN(c2ccc(C(F)(F)F)cn2)CC1
i	O=C(O)c1cc(C2CC2)n(C2CCS(=O)(=O)C2)n1 (configuration not stated)
i	O=C(NCc1ccc(Cl)cc1)c1ccc(Oc2nccnc2N2CCOCC2)cc1
i	CCOc1ccc(/C=C2\Oc3cc(OCC(=O)OC)ccc3C2=O)cc1
i	COc1ccc(Cl)cc1NC(=O)CSc1nc2cc(-c3ccccc3)sc2c(=O)n1C
i	COc1ccc(OC)c(/C=C2\Oc3cc(OC(=O)CCCCl)ccc3C2=O)c1
i	CCC(=O)Nc1ccc(C(=O)NCCN)cc1
i	Cc1cc(=O)n(CCNC(=O)c2ccc3[nH]ccc3c2)cn1
i	Cc1ccc(N2C(=O)C3N=NN(CC(=O)Nc4cccc(Cl)c4C)C3C2=O)cc1C (configuration not stated)
i	C=C1C2(C)CC3C4(C)OC(C5OC56C4=CC(=O)OC6(C)C)C3(C)C13C(=O)OC(C)C3(O)C2=O (configuration not stated)
i	O=C(Nc1cccc(Cl)c1)N1CCN(Cc2nnnn2-c2ccc(Cl)cc2)CC1
i	Cc1ccc2[nH]c3c(=O)n(CC(=O)NCc4ccco4)cnc3c2c1
i	Cc1nnc(C2CCN(C(=O)/C=C/c3ccco3)CC2)s1
i	COc1ccc2sc(OC3CCN(C(=O)/C=C/c4ccccc4)CC3)nc2c1
i	COc1ccc(S(=O)(=O)N2CCCCC2CCNC(=O)C(=O)Nc2ccccc2F)cc1 (configuration not stated)

Rewritten as tab-separated lines: five of the compounds above.
SMILES	GIRK2 act
O=C(NCc1ccc(Cl)cc1)c1ccc(Oc2nccnc2N2CCOCC2)cc1	i
CCc1ccc(-c2noc(Cn3cnc4c(cnn4-c4cc(Cl)ccc4C)c3=O)n2)cc1	i
Cc1ccc(N2C(=O)C3N=NN(CC(=O)Nc4cccc(Cl)c4C)C3C2=O)cc1C (configuration not stated)	i
COc1ccc(S(=O)(=O)N2CCCCC2CCNC(=O)C(=O)Nc2ccccc2F)cc1 (configuration not stated)	i
COc1ccc(Cl)cc1NC(=O)CSc1nc2cc(-c3ccccc3)sc2c(=O)n1C	i

(listing goes on)
GIRK2 act	Compound
i	COc1ccc(OCCCn2c(CO)nc3ccccc32)cc1
i	COCCCNc1oc(-c2ccc(S(=O)(=O)N(C)C)cc2)nc1C#N
i	COc1ccc(S(=O)(=O)Nc2ccc3c(c2)CN(C(=O)c2ccco2)CC3)cc1Cl
i	CN(c1ccc(F)c(F)c1)S(=O)(=O)c1ccsc1-c1nc(-c2ccc3c(c2)OCO3)no1
i	COc1ccc(S(=O)(=O)N2CCC(Cn3nc(C)cc3C)CC2)cc1OC
i	O=C(Cn1nc2c3sc(N4CCCC4)nc3ncn2c1=O)Nc1ccc(F)c(Cl)c1
i	CNC(=O)c1cn(-c2ccc(SCC(=O)NCc3ccc(C(F)(F)F)cc3)nn2)cn1
i	Cc1cc(-c2nn3c(-c4ccco4)nnc3s2)c2ccccc2n1
i	O=C(NCCC(O)c1ccc2c(c1)OCO2)C(=O)Nc1ccc2c(c1)OCCO2 (configuration not stated)
i	Cc1ccc(CNC(=O)Cn2nc3c(Sc4cccc(F)c4)nccn3c2=O)cc1
i	COc1ccccc1N1CCN(Cc2cc(=O)oc3cc(C)cc(C)c23)CC1
i	Cc1cc(S(=O)(=O)NCC(c2cccs2)N2CCOCC2)ccc1F (configuration not stated)
i	NS(=O)(=O)c1ccc(NC(=O)CCc2ccc(-c3ccc(Cl)cc3)o2)cc1
i	COC(=O)N1CCC(CNC(=O)C2CC=CCC2)CC1 (configuration not stated)
i	COc1cccc(-c2ccc(=O)n(Cc3nc(-c4ccc(SC)cc4)no3)n2)c1
i	O=C(CCn1cnc2ccccc2c1=O)Nc1cc(N2CCCC2)ncn1
i	COc1ccc(CC(=O)NCCc2nc(C)cc(C(F)(F)F)n2)cc1
i	COc1cccc(OCCn2cnc3ccccc32)c1
i	Cc1csc(NC(=O)CN2CCC(Cn3c(C)nc4ccccc43)CC2)n1
i	O=C(/C=C/c1cccs1)NCCc1ccncc1

3 entries already listed, arranged by number of heavy atoms, smallest number first.
GIRK2 act	Compound
i	COc1cccc(OCCn2cnc3ccccc32)c1
i	COc1ccc(OCCCn2c(CO)nc3ccccc32)cc1
i	O=C(CCn1cnc2ccccc2c1=O)Nc1cc(N2CCCC2)ncn1

The listing continues.
GIRK2 act	Compound
i	COc1ccc(-c2nc(C3CC(=O)N(c4ccccc4)C3)no2)cc1 (configuration not stated)
i	O=C(O[C@@H]1Cc2c(O)cc(O)cc2O[C@@H]1c1cc(O)c(O)c(O)c1)c1cc(O)c(O)c(O)c1
i	COCC(C)NC(=O)c1cc2c(=O)n(C)c(=O)n(C)c2n1Cc1ccccc1 (configuration not stated)
i	COC(=O)C[C@@H]1C(C(=O)O)=CO[C@@H](O[C@@H]2O[C@H](CO)[C@@H](O)[C@H](O)[C@H]2O)/C1=C\COC(=O)/C=C/c1ccc(O)cc1
i	CCOc1ccccc1NC(=O)NCc1sc(-c2ccccc2Cl)nc1C
i	COc1ccc(C)cc1NC(=O)N1CCN(c2ccc(-c3ccc4c(c3)OCO4)nn2)CC1
i	Cn1c(=O)c(C(=O)N2CCN(c3ccc(F)cc3)CC2)cc2cccnc21
i	C=CCOC(=O)COc1ccc2c(=O)c(Oc3cccc(OC)c3)c(C(F)(F)F)oc2c1
i	O=C(NCCOc1ccc(F)cc1)c1cc(-c2ccc(F)cc2)c[nH]1
i	CC1(C)Cc2cccc(OCC(=O)Nc3ccc(CC(=O)NCC(F)(F)F)cc3)c2O1
i	CCC(=O)N1CCN(C(=O)C(NC(=O)c2ccc(F)cc2)S(=O)(=O)c2ccc(C)cc2)CC1 (configuration not stated)
i	CCOc1ccc(-c2cc3c(SC)nccn3n2)cc1Cl
i	COc1ccc(Nc2cc(C)nc(N3CCN(C(=O)c4ccc5c(c4)OCO5)CC3)n2)cc1
i	CN(C)c1ccc(C(=O)NCC(C)(O)c2ccco2)cc1 (configuration not stated)
i	COC(=O)COc1cc(-c2ccc(OC)cc2)nc2ccc(NC(=O)c3c(F)cccc3F)cc12
i	O=C1N[C@H](C(=O)O)CS1
i	CS(=O)(=O)N1CCCc2ccc(NC(=O)NCCc3ccccc3)cc21
i	CCOC(=O)Cn1c(=O)c2c(nc3n2CCCN3c2ccc(OCC)cc2)n(C)c1=O
i	COc1cccc(C2=NN(S(C)(=O)=O)C(c3cn(-c4ccccc4)nc3-c3ccc(C)cc3)C2)c1 (configuration not stated)
i	O=C(c1ccc2nc[nH]c2c1)N1CCN(CC(O)c2cccs2)CC1 (configuration not stated)
i	C=CCn1c(SCC(=O)NCc2ccc3c(c2)OCO3)nc2scc(-c3ccc(C)o3)c2c1=O
i	COc1ccc(NC(=O)CN2C(=O)CC(c3ccccc3)=Nc3ccccc32)cc1
i	O=C(N1CC(c2nc(-c3ncccn3)no2)C1)C1(c2ccccc2)CCOCC1
i	COc1ccc(S(=O)(=O)NCC(c2ccc3c(c2)OCO3)N2CCOCC2)cc1F (configuration not stated)
i	Cc1ccc(C)c(OCc2nc3c(C)cccc3[nH]2)c1
i	CN(C)S(=O)(=O)c1ccc(C(=O)NCc2n[nH]c(=O)c3ccccc23)cc1
i	Cc1ccc(-n2c(C)c(C)n3c4c(=O)n(CC(=O)OCc5ccccc5)c(=O)n(C)c4nc23)cc1
i	O=C(NCCCN1CCN(c2ccccc2)CC1)C12CC3CC(CC(C3)C1)C2
i	COc1ccc(Oc2c(-c3ccc(O)cc3O)n[nH]c2C)cc1
i	COc1cc(OC)c(NC(=O)NCCNc2cc(-n3cccc3)nc(C)n2)cc1Cl
i	Cc1cccc(NC(=O)c2cn(CC(N)=O)c3nc(C)ccc3c2=O)c1
i	CCC1(CC)NC(=O)N(CC(=O)Nc2ccccc2C)C1=O
i	COC(=O)c1sccc1NC(=O)Cn1cc(-c2nc(-c3ccc(C)cc3)no2)ccc1=O
i	COc1cccc(NC(=O)CCCSc2nc(C)cc(C(F)(F)F)c2C#N)c1
i	Cc1cc2oc(=O)cc(CNc3cccc(C)c3C)c2cc1O
i	O=C(NCC(F)(F)F)C(=O)NCC1(c2ccc(F)cc2)CCOCC1
i	CN(C)S(=O)(=O)c1ccc(-c2nc(C#N)c(N3CCC(C(N)=O)CC3)o2)cc1
i	COc1ccc(C2(C)NC(=O)N(CC(=O)N3CCCc4ccccc43)C2=O)cc1 (configuration not stated)
i	Cc1c(Cl)cccc1NC(=O)Cn1cnc2c(-c3ccncc3)nsc2c1=O
i	Cc1nc(SCc2ccccc2F)[nH]c(=O)c1CC(=O)NCc1ccc2c(c1)OCO2
i	CN(CC(=O)Nc1ccc(-n2cnnn2)cc1)C(=O)c1c[nH]c2ccccc12
i	N#Cc1ccsc1NC(=O)C1CCN(S(=O)(=O)c2ccc(Cl)cc2)CC1
i	COc1ccc(S(=O)(=O)CCCC(=O)N(Cc2ccccc2)c2nc3ccc(C)cc3s2)cc1
i	Cc1cc(CNS(=O)(=O)c2ccc(NC(=O)C(C)C)cc2)c(C)o1
i	CC(C)c1noc(-c2ccnc(-n3cnc(C(=O)NCc4cccc(Cl)c4)c3)c2)n1
i	COc1ccc(-c2c(C)oc3cc(OCC(=O)OC(C)(C)C)ccc3c2=O)cc1
i	Cc1ccccc1-c1noc(-c2cccn(CC(=O)NCc3ccccc3Br)c2=O)n1
i	Cc1nc(-n2nc(-c3cccs3)cc2NC(=O)CC(c2ccccc2)c2ccccc2)[nH]c(=O)c1C
i	COc1cc2nc(SCC(=O)NCc3ccco3)n3nc(-c4ccccc4)nc3c2cc1OC
i	O=C(Nc1cccc2ccc(-n3cccc3)nc12)c1ccco1
i	CN1C(=O)N(CC(=O)Nc2cccc(F)c2)C(=O)C12CCCCC2
i	Cc1cc(S(=O)(=O)NCCn2nc(-n3ccnc3C)ccc2=O)ccc1F
i	O=C(NCCC(O)c1ccc2c(c1)OCO2)c1ccsc1 (configuration not stated)
i	COc1ccccc1-n1c(C)c(C)n2c3c(=O)n(Cc4ccccc4)c(=O)n(C)c3nc12
i	COc1ccc(NC(=O)NCCNc2cc(-n3ccnc3C)ncn2)c(OC)c1
i	Cc1cc(NC(=O)c2ccc([N+](=O)[O-])o2)n(-c2nc3c(cnn3-c3ccc(Cl)cc3)c(=O)[nH]2)n1
i	Cn1c(=O)c(C(=O)Nc2ccc(Cl)c(Cl)c2)cc2cccnc21
i	CCCNC(=O)C1CCN(c2ccc(SCC(=O)NCc3ccccc3)nn2)CC1
i	CC(O)(CNC(=O)NCc1cccs1)c1ccco1 (configuration not stated)
i	Cc1csc(SCC2CCN(C(=O)Cc3cccs3)CC2)n1
i	COc1cccc(Oc2nccn3c(=O)n(CC(=O)Nc4ccc(C(C)C)cc4)nc23)c1
i	COc1ccc(S(=O)(=O)NCCn2nc(-c3ccccc3)ccc2=O)cc1OC
i	O=C(c1ccc2nsnc2c1)N1CCC2(CC1)OCCS2

Of the compounds above, these have a COOH group.
GIRK2 act	Compound
i	O=C(O)C1CC2CN(C(=O)c3ccccc3)CC(C1)C2=O (configuration not stated)
i	O=C(O)c1cc(C2CC2)n(C2CCS(=O)(=O)C2)n1 (configuration not stated)
i	COC(=O)C[C@@H]1C(C(=O)O)=CO[C@@H](O[C@@H]2O[C@H](CO)[C@@H](O)[C@H](O)[C@H]2O)/C1=C\COC(=O)/C=C/c1ccc(O)cc1
i	O=C1N[C@H](C(=O)O)CS1

Screening results as filed in PubChem BioAssay.
